RecA intein inh: inhibitors of M. tuberculosis RecA intein splicing. P9WHJ3. cell-free RecA intein splicing, fluorescence. inhibition, %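 (about 9 µM by stock and volumes)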. actives 0.75% (n = 290,000). AID 2221; in the data active = inhibition above about 30%; inconclusive = no clear call, values can overlap the other calls;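 also: 0% = vehicle wells and 100% = reference inhibitor control wells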
Target sequence (P9WHJ3 whole entry, looked up): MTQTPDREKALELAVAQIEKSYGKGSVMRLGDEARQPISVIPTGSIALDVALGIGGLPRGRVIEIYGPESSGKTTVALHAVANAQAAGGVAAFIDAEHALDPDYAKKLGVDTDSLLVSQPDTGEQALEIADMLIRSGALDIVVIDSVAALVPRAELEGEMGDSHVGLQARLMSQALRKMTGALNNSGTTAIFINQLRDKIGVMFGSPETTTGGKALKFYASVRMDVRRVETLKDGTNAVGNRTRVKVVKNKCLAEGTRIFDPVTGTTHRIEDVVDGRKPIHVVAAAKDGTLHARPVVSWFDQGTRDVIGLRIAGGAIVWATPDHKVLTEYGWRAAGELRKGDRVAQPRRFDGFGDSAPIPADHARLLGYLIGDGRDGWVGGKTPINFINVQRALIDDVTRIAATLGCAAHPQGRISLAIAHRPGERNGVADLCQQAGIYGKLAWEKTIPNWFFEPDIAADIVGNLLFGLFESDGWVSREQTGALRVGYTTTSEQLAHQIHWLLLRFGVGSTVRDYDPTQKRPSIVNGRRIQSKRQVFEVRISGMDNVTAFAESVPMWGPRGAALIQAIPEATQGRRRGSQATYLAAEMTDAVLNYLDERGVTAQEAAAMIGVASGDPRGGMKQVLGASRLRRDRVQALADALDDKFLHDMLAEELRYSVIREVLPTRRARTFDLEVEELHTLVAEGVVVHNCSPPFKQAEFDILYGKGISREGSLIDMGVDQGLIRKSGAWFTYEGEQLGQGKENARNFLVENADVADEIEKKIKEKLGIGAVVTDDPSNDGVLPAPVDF
Mtb betalactam: beta-lactam sensitization of Mtb H37Rv; M. tuberculosis H37Rv growth with meropenem, percent inhibition; hits of this screen are not shown here; inhibition, % at 25 µM; actives 0.27% (n = 330,000);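 active = about 74% or more and at least 40 points above the plate without the antibiotic, then above 30% in a dose series; inconclusive = first-round hits that could not be retested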;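 also: growth measured after seven days incubation then overnight dye step; 0% = bacteria only wells and 100% = bacteria with antibiotic; twin plates without the antibiotic show which effects depend on it; some results filed as inactive read as strong as hits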
YopH inh: YopH (Yersinia) phosphatase inhibition; fluorescence Ex485/Em525; inhibition, %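 (about 10 µM by stock and volumes)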; actives 0.16% (n = 140,000); AID 898;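 active = inhibition of 50% or more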;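 also: controls were vehicle for no effect and minimum signal wells for full effect; inactives centre near -20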
Mtb H37Rv: M. tuberculosis H37Rv growth inhibitors, H37Rv strain (AID 1626) | M. tuberculosis H37Rv growth inhibition; higher % means a stronger effect | inhibition, % at 10 µM, or IC50 in µM where a hit was titrated | actives 0.95% (n = 220,000);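 active = confirmed in a dose series; inconclusive = inhibition above 80% but not taken into the dose series; inactive = below 80% or under 30% at every dose of the series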;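 also: bacteria incubated seven days before Alamar blue readout; 0% = bacteria only wells and 100% = bacteria with antibiotic wells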
Arbovirus anti: antivirals against arbovirus infection; arbovirus infection cell-based antiviral screen; inhibition, % at 10 µM; actives 0.37% (n = 200,000); AID 1251;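 active = inhibition from about 30%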;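 also: bluetongue infection of BSR cells; cell survival read as ATP light after 72 h; 0% = infected wells without compound and 100% = uninfected wells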
Arbovirus anti repeat: also measured in Arbovirus anti; calls as there; inhibition, %; measured here: 10K subset replicate screen; many hits read low in the repeat;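 first of two repeat runs on a subset; 0% = infected and 100% = uninfected wells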
Starred values were filed as active, the others as inactive; ? = inconclusive; · = no result given. The list is partial; count on the stated rates, not on these rows.

SMILES | RecA intein inh | Mtb betalactam | YopH inh | Mtb H37Rv | Arbovirus anti | others
C=C(C)c1cccc(C(C)(C)NC(=O)Nc2ccc3[nH]c(=O)[nH]c3c2)c1 | 1.7 | 4.0 | -52.0 | 2.7% | -4.0
CCCCCCc1nc2ccccc2c(=O)n1N | 5.1 | -9.2 | -24.0 | 8.7% | -3.9
N=C1S/C(=C\c2cccc3ccccc23)C(=O)N1c1ccc(F)cc1 | -1.2 | 28.5 | -13.7 | 8.1% | -11.6
CC(C)(C)C1CCc2c(sc(NC(=O)c3cccs3)c2C(=O)N2CCCCC2)C1 (centres undefined) | -1.0 | 94.9 | -12.7 | 34.9% | -17.7
N#C/C(=C\c1ccc(OC(=O)c2cccs2)cc1)c1nc2ccccc2[nH]1 | -2.5 | -1.3 | -20.8 | 28.1% | 2.4
CCCCCC(=O)Nc1cccc(C2=NOC3(C2)C[C@@H](C(N)=O)N(C(=O)C2(C)CC2)C3)c1 (some centres undefined) | -4.3 | 1.1 | · | -6.0% | ·
CSc1ccc(NC(=O)Nc2ccccc2C(N)=O)cc1 | -0.3 | 1.1 | · | -8.6% | ·
Cc1ccc(-n2c(=O)[nH]cc(C(=O)N3CCc4ccccc43)c2=O)cc1 | -0.6 | 0.8 | -15.2 | -6.9% | 3.5
Cc1nc(=O)c(-c2ccccc2)c(C)n1-c1ccccc1O | · | -9.3 | -34.8 | -8.0% | 2.1
Cc1cccc(-c2cc3nc(C)cc(C)n3n2)c1 | -6.0 | -2.9 | · | -1.5% | -5.1
CCCCCC(O)CCc1n[nH]c(=S)n1-c1ccccc1 (centres undefined) | -1.4 | -20.3 | -30.8 | -0.3% | 4.5
CN1/C(=C\C(=O)CSc2ncn[nH]2)C(C)(C)c2ccccc21 | 0.3 | -3.9 | -13.3 | 4.6% | 10.8
COc1ccccc1OCCNC1CCCC1 | -2.4 | 8.5 | -28.6 | -4.7% | 7.7
COc1ccc(CCn2c(=N)c(S(=O)(=O)c3ccc(Cl)cc3)cc3c(=O)n4ccccc4nc32)cc1 | 0.8 | 9.2 | · | · | ·
CNS(=O)(=O)c1cn(CC(=O)NCc2ccc(OC)cc2)cc1S(=O)(=O)NC | 1.0 | -0.9 | · | · | ·
Nc1nc2n(n1)C(c1ccco1)CC(c1ccc(Cl)cc1Cl)N2 (centres undefined) | 3.3 | -0.8 | -30.9 | -0.9% | 5.6
CNc1oc(Cc2ccccc2)nc1S(=O)(=O)c1ccccc1 | -2.2 | 6.5 | -32.2 | · | 0.6
COc1ccc(/C=C/C(=O)NC(=S)Nc2ccc(S(=O)(=O)N=C(N)N)cc2)cc1OC | 0.2 | 5.1 | · | · | ·
Cn1nc(C(F)(F)F)c(-c2cccc(C(F)(F)F)c2)c1NC(=O)Nc1ccc(F)cc1 | 0.8 | 2.2 | · | -6.8% | ·
COc1ccc(C(=O)/C=C/c2ccc(OC3CSC3)cc2)cc1 | 3.5 | 32.7 | -26.3 | 9.9% | 16.8

Reprinted from the part before: 5 entries, followed by the next part.
SMILES | RecA intein inh | Mtb betalactam | YopH inh | Mtb H37Rv | Arbovirus anti | others
Nc1nc2n(n1)C(c1ccco1)CC(c1ccc(Cl)cc1Cl)N2 (centres undefined) | 3.3 | -0.8 | -30.9 | -0.9% | 5.6
CNc1oc(Cc2ccccc2)nc1S(=O)(=O)c1ccccc1 | -2.2 | 6.5 | -32.2 | · | 0.6
COc1ccc(/C=C/C(=O)NC(=S)Nc2ccc(S(=O)(=O)N=C(N)N)cc2)cc1OC | 0.2 | 5.1 | · | · | ·
Cn1nc(C(F)(F)F)c(-c2cccc(C(F)(F)F)c2)c1NC(=O)Nc1ccc(F)cc1 | 0.8 | 2.2 | · | -6.8% | ·
COc1ccc(C(=O)/C=C/c2ccc(OC3CSC3)cc2)cc1 | 3.5 | 32.7 | -26.3 | 9.9% | 16.8
COc1ccc(N2CCN(C(=O)CN(C)S(=O)(=O)c3cnc[nH]3)CC2)cc1 | -0.9 | 1.1 | -15.2 | -7.3% | 0.7
C=CCOc1c(Br)cc(/C=N/NC(=O)Cc2ccc(C(F)(F)F)cc2[N+](=O)[O-])cc1OC | -1.7 | 2.4 | -5.7 | 5.3% | 9.0
COc1ccccc1N1C(=NC(=O)C(C)Oc2ccccc2)SC2CS(=O)(=O)CC21 (centres undefined) | -1.0 | 6.1 | · | · | ·
COc1ccc(-c2nnc(OC)c3ccccc23)cc1 | 0.8 | 0.0 | · | · | ·
COCC(=O)Nc1ccccc1C(=O)NC(C)C | 1.6 | -1.1 | -6.7 | -4.2% | 2.3
COC(=O)C1=C(N)Oc2cc(C)oc(=O)c2C1c1cccnc1 (centres undefined) | 1.6 | -12.2 | -16.2 | -0.6% | 5.1
S=C(NCc1cccs1)Nc1ccccc1Cl | 1.9 | 5.4 | -26.8 | 3.2% | -7.0
COc1cc(NC(=O)CCCNC(=O)c2ccc(Cl)cc2)cc(OC)c1OC | 0.9 | -3.4 | · | · | ·
CCOC(=O)c1cccc(N2C(N)=NC(N)=NC2(C)C)c1 | 3.3 | -0.4 | -27.3 | 10.0% | -0.2
O=C1NC(=S)N/C1=C/c1cccc([N+](=O)[O-])c1 | -0.7 | -0.5 | · | 1.3% | 2.1
Cc1c(Cl)cccc1NC(=S)NC(=O)c1cncc(Br)c1 | 1.2 | -1.3 | · | · | ·
O=C(Nc1cccc(-c2ccc(N3CCCCC3)nn2)c1)C(F)(F)F | -1.4 | ? | · | · | ·
Cc1cc(NC(=O)CCC(=O)N(c2ccccc2C)C(C(=O)NC2CCCC2)c2ccccc2)no1 (centres undefined) | 2.0 | 8.8 | · | · | ·
O=C1CC(N2CCN(c3cccc(C(F)(F)F)c3)CC2)C(=O)N1c1ccccc1F (centres undefined) | -4.6 | -6.9 | -53.6 | 5.6% | 6.0
S=C(Nc1ccc2nccnc2c1)N1CCOCC1 | -6.4 | -2.2 | · | 0.7% | -1.6
COc1ccc(CCN(C)Cc2ccc(OCc3ccccc3)c(OC)c2)cc1OC | 2.2 | 1.1 | -10.8 | 0.5% | -21.4
Cn1c(NC(=O)C[n+]2cc(-c3ccc(Cl)cc3)n3c2CCC3)cc(=O)n(C)c1=O | 0.1 | 1.7 | -11.8 | -4.1% | 1.1
CCOC(=O)N1CCN(Cc2nc3cc(NC(=O)C(C)C)ccc3n2CC)CC1 | -6.4 | -1.9 | · | · | ·
COC(=O)c1c(NC(=O)Cc2ccc(OC)c(S(=O)(=O)N3CCOCC3)c2)sc(C)c1C | 1.0 | -9.3 | · | · | ·
Cc1cc(C(F)(F)F)nc(SCC(=O)c2cccc([N+](=O)[O-])c2)n1 | -0.4 | -4.4 | -24.3 | 1.1% | 20.2
O=C1C2C3C=CC(C2C(=O)N1C1CCCCC1)C1C2C(=O)N(C4CCCCC4)C(=O)C2C31 (centres undefined) | -1.5 | 8.6 | -9.5 | 2.3% | -5.8
CCOc1cc(/C=C(\C#N)C(=O)Nc2ccccc2[N+](=O)[O-])ccc1OCc1cccc2ccccc12 | · | · | · | 4.1% | -32.0
CC(C)(C)c1cc(OC(=O)Cc2ccccc2)ccc1O | 3.8 | -10.3 | · | · | ·
O=C(CSc1nnc2scc(-c3ccccc3)n12)NCc1ccc2c(c1)OCO2 | 2.1 | -12.2 | -28.6 | 3.9% | 1.2
Cc1cccc(OC(=O)CN2C(=O)C3C4CCC(C4)C3C2=O)c1C (centres undefined) | -0.2 | 11.8 | -12.5 | -6.9% | 4.7
NS(=O)(=O)c1ccc(CCNC(=O)c2cnccn2)cc1 | 0.4 | 6.0 | · | · | ·
Nc1nnc(SCC(=O)c2ccccc2)s1 | -1.2 | -0.9 | -31.4 | -0.3% | 7.8
CC(C)(C)c1ccc(OCc2nnc(SCC(N)=O)n2N)cc1 | 1.8 | -3.3 | · | 5.0% | -0.9
Cc1c(NC(=O)C(C)OC(=O)c2cc(-c3cccc4ccccc34)nc3ccccc23)c(=O)n(-c2ccccc2)n1C (centres undefined) | 3.9 | -0.4 | -14.3 | 3.2% | -1.2
CCNC(=S)N1CCN(c2nc(-c3cccc(OC)c3)cs2)CC1 | 1.1 | 13.5 | · | · | ·
Cc1cc(SCC(=O)c2cccs2)nc2ccccc12 | 1.3 | 13.0 | -9.2 | 16.3% | 6.7
CCOC(=O)c1sc2nc(Cc3ccc(Cl)cc3)[nH]c(=S)c2c1C | -4.3 | 30.6 | · | 62.6% | 6.2
CC1=CC2=C(OC1N(C)C)c1cccc3cccc(c13)C2=O (centres undefined) | -4.7 | 7.0 | 24.0 | -1.8% | 6.7
O=C(Nc1ccc(Oc2ncnc3cc(Cl)ccc23)nc1)Nc1cccc(C(F)(F)F)c1 | 0.0 | -1.3 | · | -1.7% | ·
O=C(Nc1cc(C(F)(F)F)ccc1N1CCOCC1)c1cnccn1 | 1.1 | -3.4 | · | · | ·
CCOC(=O)CSc1nc2ccc(C)cc2[nH]1 | -1.0 | 1.5 | -33.2 | -5.7% | -2.0
O=C(N1CCCC1)C12CC3CC(CC(Cl)(C3)C1)C2 | 0.7 | 1.0 | · | · | ·
Cc1ccc(OCCOCCN(C)C)c(Cl)c1 | -2.2 | 4.9 | -2.3 | 2.3% | -4.2
Cc1ccc(Cn2c(=O)c3ccccc3n3c(CCC(=O)NCCN4CCOCC4)nnc23)cc1 | -2.4 | 1.8 | · | · | ·
COc1cc(C(=O)Nc2nc(N)n(-c3ccccc3)n2)cc(OC)c1OC | 2.6 | -8.5 | -30.6 | -14.7% | -2.3
O/N=C1\CCCc2ccc3ccccc3c21 | 4.2 | 3.7 | · | -11.5% | ·
Cc1cccc(C2=N/C(=C\c3cccs3)C(=O)O2)c1 | 2.5 | 99.2 | · | 8.1% | 2.6
CCCC1C(c2ccccc2)C(C#N)(C#N)C2(C#N)CC1(N)NC2=O (centres undefined) | 0.6 | 1.0 | -37.3 | -14.6% | 5.3
COc1cc2c(cc1NC(C)=O)CCCC2 | 2.2 | -10.1 | 12.0 | -2.5% | 2.5 | Arbovirus anti repeat=2.7
O=C(Nc1nnc(SCC(=O)N2CCCC2)s1)C1CC(=O)N(c2ccccc2)C1 (centres undefined) | -1.1 | -13.9 | · | · | ·
Clc1ccc(NCc2nncn2-c2ccccc2)cc1 | -0.5 | -8.8 | -42.4 | 4.4% | 10.8
CCOCCCNC(=O)c1ccc(OC(C)=O)cc1 | 2.3 | -3.1 | 14.5 | -11.9% | 1.8
O=c1[nH]c(Cc2cccc(C(F)(F)F)c2)nc2ccccc12 | -0.7 | -1.6 | · | · | ·
CCOc1ccc(-c2nnn(CC(=O)c3ccc4c(c3)OCCO4)n2)cc1 | -4.0 | 11.8 | -40.2 | -0.8% | 9.2
O=C(CCc1nc2ccccc2s1)OCC(=O)c1ccc[nH]1 | 0.3 | 46.0 | · | 4.4% | 1.6
O=C1/C(=C/c2ccc([N+](=O)[O-])cc2)N2CCC1CC2 | -3.9 | -1.9 | -29.9 | 1.2% | 1.0
O=C1NC2(CCCC2)N=C1c1ccc(F)cc1 | · | -9.3 | -36.8 | -8.0% | 9.5
CCOC(=O)c1c(N)n(C2CC(C)(C)NC(C)(C)C2)c2nc3ccccc3nc12 | -206.2 | 4.0 | -9.0 | 8.1% | 1.0
Cc1ccc(C2CN(C)C3(C(=O)Nc4ccccc43)C23COc2ccccc2C3=O)cc1 (centres undefined) | 8.5 | 99.5 | -40.5 | · | -14.3
CC(=O)c1cccc(NC(=O)CN(c2ccccc2F)S(C)(=O)=O)c1 | -1.8 | 7.7 | -23.5 | -2.2% | 8.6
Cn1ccnc1SCC(=O)Nc1ccc(Cl)cn1 | 0.7 | 0.3 | · | 4.5% | -1.5
COc1ccc(OC)c(C2=NS(=O)(=O)N(C)C(C(=O)N3CCC4(CC3)OCCO4)=C2)c1 | -3.8 | 0.3 | · | · | ·
O=C(Nc1nc2ccccc2n1CCOc1ccc(Cl)cc1)c1ccco1 | -1.8 | 1.5 | -31.4 | ? | -15.8 | Arbovirus anti repeat=-16.0
CC1CCN(c2nc3ccccc3nc2C(C#N)C(=O)OC2CCCCC2)CC1 (centres undefined) | -0.8 | -6.2 | -34.0 | -0.7% | -5.9
Cc1cccc(C(=O)Oc2csc(=S)n2C(=O)c2cccc(C)c2)c1 | 6.0 | 17.2 | -25.0 | -2.5% | -3.8
Cc1cccc(NC(=S)Nn2cnnc2)c1C | -1.3 | 0.2 | · | 0.3% | 0.4
O=C(CNCc1ccccc1)Nc1ccc(F)cc1 | 0.4 | -3.8 | · | -5.3% | 0.7

An excerpt from above in order of molecular weight, rising.
SMILES | RecA intein inh | Mtb betalactam | YopH inh | Mtb H37Rv | Arbovirus anti | others
CCOCCCNC(=O)c1ccc(OC(C)=O)cc1 | 2.3 | -3.1 | 14.5 | -11.9% | 1.8
Cc1cccc(C2=N/C(=C\c3cccs3)C(=O)O2)c1 | 2.5 | 99.2 | · | 8.1% | 2.6
O=C(Nc1nnc(SCC(=O)N2CCCC2)s1)C1CC(=O)N(c2ccccc2)C1 (centres undefined) | -1.1 | -13.9 | · | · | ·
